# HNF4A DNA FP = change in binding of human HNF4 alpha to DNA | actives 0.3% (n = 360,000) | HNF4a-FITC DNA binding, fluorescence polarization, 1 h | activity change, % at 10 µM | P41235; in the data active means activity change above about 30%, passing the limit was not always enough;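 further: controls were the assay level and a saturating level of protein; the project sought stronger binding though the title names inhibitors; some compounds called inactive have numbers as strong as hits; positive values seem to mean higher polarization but the record does not say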
# Target sequence (P41235 whole entry, looked up): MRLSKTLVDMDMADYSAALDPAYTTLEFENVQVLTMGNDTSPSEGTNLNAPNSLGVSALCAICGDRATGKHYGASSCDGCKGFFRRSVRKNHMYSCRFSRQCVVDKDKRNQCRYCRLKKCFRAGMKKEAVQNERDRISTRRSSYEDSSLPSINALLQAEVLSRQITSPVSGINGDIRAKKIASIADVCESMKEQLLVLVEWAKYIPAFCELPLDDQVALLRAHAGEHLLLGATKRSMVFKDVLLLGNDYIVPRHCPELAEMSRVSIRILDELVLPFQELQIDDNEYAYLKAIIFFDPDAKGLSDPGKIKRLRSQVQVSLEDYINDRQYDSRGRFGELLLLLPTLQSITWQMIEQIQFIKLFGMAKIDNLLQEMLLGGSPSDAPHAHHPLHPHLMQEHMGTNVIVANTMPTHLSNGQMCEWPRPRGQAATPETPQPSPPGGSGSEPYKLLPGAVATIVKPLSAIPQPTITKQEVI
# LANA-H2B inh = blocks KSHV LANA binding to histone H2A/H2B; inhibition, % (no concentration beside the values); actives 0.6% (n = 320,000); cell-free LANA-H2A/H2B peptide, fluorescence polarization; Q9QR71; in the data active means inhibition mostly above about 10%, no sharp cut-off; inactive means mostly below about 6.7%;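 further: stock transfer was 7.5 nL into about 10 µL; 0% = median of vehicle wells and 100% = median of positive control wells; one replicate is shown; the record names a cut of 25% in any replicate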
# Vif TR-FRET = inhibitors of Vif binding to APOBEC3G peptide, primary screen, biochemical, TR-FRET, GST-Vif 1-94, biotin-A3G peptide, dose response retest (AID 1117319) | TR-FRET GST-Vif / biotin-A3G peptide binding; higher % means a stronger effect; test concentration not given here; strong numbers were not always called active | inhibition, %; hits with a dose series show IC50 in µM | actives 0.57% (n = 260,000);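 active means above the screen mean plus three standard deviations and confirmed in dose response; inconclusive means results disagree or hit not tested in dose response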;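 further: Vif residues 1-94 fused to GST binding biotinylated APOBEC3G peptide 110-148; 0% = full assay without inhibitor and 100% = GST in place of GST-Vif; retest series ran down from 100 µM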
# Beta2AR agonist = agonists of human beta-2 adrenergic receptor inducing internalization | actives 0.43% (n = 340,000) | AID 504454 | response, % (test concentration not listed) | P07550 | Am2.2-beta2AR cells, FAP receptor internalization, flow cytometry; reference of the scale not given here;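 active means response above a set limit, near 3 SD of response in nonfluorescent compounds, cut at about 42% in these data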;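 further: stock transfer was 100 nL into about 11 µL; a reference agonist was the positive control; negative values mostly stem from fluorescent compounds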
# Target sequence (P07550 whole entry, looked up): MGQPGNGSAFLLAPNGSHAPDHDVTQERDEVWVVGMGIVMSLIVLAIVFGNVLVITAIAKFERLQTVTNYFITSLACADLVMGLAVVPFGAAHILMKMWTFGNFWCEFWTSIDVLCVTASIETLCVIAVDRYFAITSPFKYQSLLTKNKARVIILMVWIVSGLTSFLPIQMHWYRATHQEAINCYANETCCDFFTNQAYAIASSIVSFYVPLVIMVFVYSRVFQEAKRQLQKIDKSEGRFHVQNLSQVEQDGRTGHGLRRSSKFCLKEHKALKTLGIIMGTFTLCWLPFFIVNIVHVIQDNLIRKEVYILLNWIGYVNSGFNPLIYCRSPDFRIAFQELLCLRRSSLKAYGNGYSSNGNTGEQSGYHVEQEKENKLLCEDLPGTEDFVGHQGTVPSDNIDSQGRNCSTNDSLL
# E coli growth = blocks Escherichia coli growth | actives 0.21% (n = 330,000) | OD600, 23 h; active compounds read low | OD600 absorbance (test concentration not listed);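 active means OD600 absorbance below the run mean of sample wells minus 3.6 SD, in any replicate, cut at about 0.56 in these data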;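 further: stock transfer was 300 nL into about 60 µL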
# UCH37 DUB inh = blocks the human deubiquitinase UCH37; Q9Y5K5; purified proteasome/UCH37, Ub-AMC cleavage fluorescence; inhibition, % (no concentration beside the values); actives 0.33% (n = 330,000); AID 588478;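 active means mean of two replicates above 20%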;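 further: 0% = compound-free wells with enzyme and 100% = wells lacking proteasome; stock transfer was 100 nL into about 20 µL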
#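 System: Proteasome-associated human UCH37 deubiquitinase; Input: 0.15 nM proteasome in added enzyme buffer; Also added: Ub-AMC substrate from 1 µM stock; Incubation: 30 min compound-proteasome preincubation then 25 min substrate reaction, room temperature; Detection: fluorescence, ex 355 nm, em 460 nm; Read-out: % inhibition of Ub-AMC cleavage fluorescence; Benchmarks: no-proteasome and no-compound wells.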
# A1 inh = inhibitors of the anti-apoptotic protein A1, read as caspase activation; MEF A1-2A-BIM cells, Caspase-Glo 3/7 luminescence, 3 h; percent of clofoctol response, vehicle zero; caspase activation, % (test concentration not listed); actives 0.066% (n = 330,000);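 active means over half of replicate activation scores above 10%, or exactly half above 10 with the replicate mean above 10; inconclusive means replicate mean below 10 yet half the replicates above 10; inactive means over half of replicates below 10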;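 further: wells of about 30 µL received 50 nL stock; many hits fall short of the cut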
# Starred values were filed as active, the others as inactive; ? = inconclusive; . = no result given.
SMILES,HNF4A DNA FP,LANA-H2B inh,Vif TR-FRET,Beta2AR agonist,E coli growth,UCH37 DUB inh,A1 inh
COc1ccc2c(c1OC)c(=O)n1c3ccc(OC(C)C(=O)NCCN4CCOCC4)cc3c3ccnc2c31 (stereo not drawn),4.7,4.0,.,2,0.71,-172,0.9
O=C(NNC(=O)c1cccc(S(=O)(=O)N2CCc3ccccc32)c1)c1ccccc1,-3.1,.,6%,7,0.7,1.1,.
Cc1ccc(C)c(S(=O)(=O)N2CCCOC2CNC(=O)C(=O)NCCN2CCOCC2)c1 (stereo not drawn),2.4,-0.3,-5%,3,0.7,1.1,-0.3
O=S(=O)(c1ccccc1)N1CCCN(S(=O)(=O)c2ccccc2)CC1,1.8,3.1,-1%,-3,0.68,-2.1,0.2
COc1cc2nc(NC(=O)c3ccccc3)[nH]c(=O)c2cc1OC,4.0,5.0,-4%,-5,0.76,7.8,0.8
O=[N+]([O-])c1ccc(N2CCN(c3ccccc3O)CC2)c(Cl)c1,-3.4,-1.7,0%,5,0.7,0.1,-0.5
CCn1c(CNC(=O)Cc2ccc(OC)cc2)nnc1SCCOc1ccccc1,-0.9,-4.2,2%,-3,0.65,-1.7,1.0
CC1CCCC(NC(=O)C2CCN(S(=O)(=O)N3CCCCC3)CC2)C1C (stereo not drawn),-0.7,-1.6,-14%,3,0.72,1.8,0.6
CCC(C(=O)NCc1ccco1)N(C(=O)CNS(=O)(=O)c1ccc(C)cc1)c1ccccc1F (stereo not drawn),3.5,0.3,-3%,2,0.71,3.6,0.1
S=C(NCc1ccc2c(c1)OCO2)NCc1ccco1,4.5,0.8,0%,1,0.67,0.4,1.1
Cc1ccc(S(=O)(=O)N2CCN(CC(=O)Nc3ccccc3Cl)CC2)cc1,-2.1,.,.,-5,0.7,1.5,.
Cc1cc(C(=O)CN2C(=O)NC3(CCCc4ccccc43)C2=O)c(C)n1Cc1ccccc1 (stereo not drawn),21,-2.3,-1%,1,0.79,-0.6,0.3
O=C(NNC(=O)c1ccc2ccccc2c1)c1cccc(Cl)c1,-1.0,.,-1%,-5,0.7,2.2,.
CC1CCC2C(=O)N(c3ccc(NC4CCCCC4)c([N+](=O)[O-])c3)C(=O)C2C1 (stereo not drawn),-2.4,-3.4,.,-6,0.73,-0.2,1.6
CCn1cc(C(=O)N(C)Cc2ccc(OC(F)F)cc2)c(=O)c2ccc(C)nc21,-0.8,3.3,-2%,-4,0.64,-1.5,0.7
Cc1cc(C)n(-c2cc(N3CCN(C(=O)c4cccc(F)c4)CC3)ccc2[N+](=O)[O-])n1,-1.6,6.3,.,0,0.68,8.5,-1.6
COC(=O)c1ccc(COC(=O)c2ccccc2OC)cc1,0.3,0.5,31%,0,0.72,2.6,-2.9
CCOC(=O)c1nnn(-c2nonc2-n2cccc2)c1CN1CCOCC1,1.8,-1.6,-2%,14,0.72,1.1,0.0
N#Cc1c(-c2ccco2)cc(C2CC2)nc1SCC(=O)c1ccccc1,1.3,4.9,-3%,7,0.69,0.7,-0.1
CCOC(=O)c1sc(NC(=O)COC(=O)Cn2cnc3ccccc32)c(C(=O)OCC)c1C,-1.9,-4.0,?,14,0.72,0.8,0.0
CCN(CC)c1ccc(/C=N/NC(=O)CNC(=O)c2cccs2)cc1,3.6,3.1,.,14,.,.,?
Cc1ccc(-n2ncc3ccccc3c2=O)cc1Cl,-4.2,-1.4,7%,2,0.68,1.7,0.7
O=C(COC(=O)c1ccccn1)Nc1nc(-c2ccccc2)cs1,-0.3,-4.8,1%,-4,0.69,0.6,-4.2
Cc1ccccc1-c1nnc(CS(=O)(=O)c2ccccc2)o1,0.6,-0.9,.,-10,0.65,5.5,-0.2
CC1(C)CNC(=O)c2sc(NC(=O)CN3CCOCC3)nc2C1,10,2.6,-6%,1,0.72,0.0,2.1
Cc1cc(NC(=O)Nc2cccc([N+](=O)[O-])c2)no1,2.0,4.8,9%,4,0.68,5.6,0.7
Cc1cc(C(=O)NNC(=S)NCc2ccccc2)no1,0.6,.,3%,-4,0.69,1.9,.
COc1cc(OC)c(C2=NOC(C(=O)Nc3c(C)n(C)n(-c4ccccc4)c3=O)C2)cc1Cl (stereo not drawn),2.0,2.3,-8%,-4,0.72,-3.2,0.2
CSCCC(NS(=O)(=O)c1ccc(C)cc1C)C(=O)Nc1cccnc1 (stereo not drawn),-0.7,4.5,-2%,-9,0.72,4.8,1.1
CCN(CC)C(=S)SCC(=O)Nc1ncc2c(n1)CC(C)(C)CC2=O,1.5,-6.4,-5%,-11,0.7,3.2,0.9
C=CCSC1=Nc2cc(OC)c(OC)cc2C2=NC(=O)CN12,1.2,.,?,0,0.66,-199,.
CCN(CC(=O)Nc1ccccc1OC)C(=O)c1ccc(NC(=O)c2cccs2)cc1,-0.2,2.2,.,13,0.67,3.0,-0.1
CC(C)(C)c1cc(CN(CCO)CCO)cc(C(C)(C)C)c1O,-1.2,5.2,7%,-1,0.73,3.7,0.0
CCOC(=O)C1CCN(C(=O)CCCCn2c(=O)[nH]c3ccccc3c2=O)CC1,6.9,0.5,10%,-5,0.72,3.7,0.6
O=S(=O)(c1ccc2c(c1)OCCO2)N1CCC(n2nnc3cc(C(F)(F)F)ccc32)CC1,-4.0,-0.9,-3%,-4,0.75,1.6,-0.9
Cc1cccnc1NC(=O)Cn1nc(-c2ccccc2)oc1=S,-1.6,1.6,-6%,-6,0.7,1.3,-0.7

# Filtered by structure: those above with fluorine.
SMILES,HNF4A DNA FP,LANA-H2B inh,Vif TR-FRET,Beta2AR agonist,E coli growth,UCH37 DUB inh,A1 inh
CCC(C(=O)NCc1ccco1)N(C(=O)CNS(=O)(=O)c1ccc(C)cc1)c1ccccc1F (stereo not drawn),3.5,0.3,-3%,2,0.71,3.6,0.1
CCn1cc(C(=O)N(C)Cc2ccc(OC(F)F)cc2)c(=O)c2ccc(C)nc21,-0.8,3.3,-2%,-4,0.64,-1.5,0.7
Cc1cc(C)n(-c2cc(N3CCN(C(=O)c4cccc(F)c4)CC3)ccc2[N+](=O)[O-])n1,-1.6,6.3,.,0,0.68,8.5,-1.6
O=S(=O)(c1ccc2c(c1)OCCO2)N1CCC(n2nnc3cc(C(F)(F)F)ccc32)CC1,-4.0,-0.9,-3%,-4,0.75,1.6,-0.9

# Following part
SMILES,HNF4A DNA FP,LANA-H2B inh,Vif TR-FRET,Beta2AR agonist,E coli growth,UCH37 DUB inh,A1 inh
O=C(COC(=O)c1ccc(Cl)cc1Cl)Nc1cccc(S(=O)(=O)NC2=NCCC2)c1,-0.8,6.9,-5%,8,0.66,0.5,-0.2
CCCN(CC1CC1)c1nc(C)nc(Nc2c(Cl)cc(Cl)cc2Cl)c1Cl,-0.4,3.4,.,11,0.7,-0.9,0.5
COc1ccc(/C=C/C(=O)c2ccc[nH]2)cc1OC,3.5,10,20%,-3,0.63,-9.9,2.9
Cc1ccnc(NS(=O)(=O)c2ccc(NC(=O)c3cncc(Br)c3)cc2)n1,-2.4,-4.8,?,-6,0.67,1.1,0.2
CCOC(=O)C1=C(C)NC(C)=C(C(=O)OCC)C1C(=O)OCC(=O)NC1(C#N)CCCCC1,-3.1,-0.6,2%,6,0.69,-30,-0.5
CC(C)c1ccc(S(=O)(=O)/N=C2/C=C(Sc3ncn[nH]3)C(=O)c3ccccc32)cc1,-6.2,8.7,.,22,.,.,0.7
FC(F)(F)C1=CC(c2ccc(Cl)cc2)=NCCN1,-0.3,0.0,15%,-5,0.74,12,0.0
CCC(C)(C)c1ccc(OC(=O)c2cccnc2Cl)cc1,-1.9,-0.2,.,-4,0.65,3.2,-0.4
CN(C)CC#CCCCCCCC#CCN(C)C,.,4.8,-1%,.,.,.,3.2
O=C(COC(=O)[C@@H]1CC(O)CN1S(=O)(=O)c1ccc([N+](=O)[O-])cc1)NC12CC3CC(CC(C3)C1)C2 (stereo partly drawn),3.6,1.3,-2%,3,0.74,1.3,0.0
COC(=O)CSc1nc2cc(OC)ccc2n1C,0.5,-4.9,.,11,0.66,0.8,1.0
CCOCCCNC(=O)C(NC(=O)CNC(=O)c1ccccc1)c1ccc(C)cc1 (stereo not drawn),-3.0,2.4,-4%,0,0.69,0.3,-0.1
CC1CCN(c2ccc(C(=O)Nc3ccc4c(c3)OCO4)cc2[N+](=O)[O-])CC1,-0.7,4.5,-2%,13,0.72,7.6,0.4
O=C(Nc1ccccc1)Nc1cccc(NC(=O)Nc2ccccc2)c1F,-5.0,3.6,0%,1,0.68,2.7,-0.7
O=C(CSc1nnc(NC(=O)C2CC2)s1)NCc1ccc(F)cc1,2.0,-3.9,.,-2,0.68,1.0,-0.5
COc1ccc(-c2sc3cc(OC)ccc3c2-c2ccc(OCCN3CCOCC3)cc2)cc1,1.3,.,-8%,-2,0.72,-37,.
COc1ccc([C@@H]2CC(=O)c3c(O)cc(O[C@@H]4OC(CO[C@@H]5OC(C)[C@H](O)[C@@H](O)[C@H]5O)[C@@H](O)[C@H](O)[C@H]4O)cc3O2)cc1O (stereo partly drawn),5.4,.,.,0,0.67,1.8,.
CCn1cc(Cl)c(C(=O)Nc2ccc3c(c2)OCCO3)n1,-0.6,-1.0,1%,15,0.7,2.5,-9.4
CCc1ccc(NC(=S)N(CCCN2CCOCC2)Cc2ccco2)cc1,-2.7,0.5,-2%,-6,0.74,-1.5,-0.5
CCOc1ccc(NC(=O)C2CCCN(C(=O)NCc3ccccc3)C2)cc1 (stereo not drawn),-2.8,0.3,-11%,-1,0.7,3.3,-0.1
O=C(Nc1ccc(-c2cn3ccsc3n2)cc1)C1COc2ccccc2O1 (stereo not drawn),-3.1,-1.3,18%,29,0.67,0.7,-1.9
Cc1ccc(C)c(NC(=O)CCN2C(=O)C3CC=CCC3C2=O)c1 (stereo not drawn),-0.2,1.3,-2%,6,0.72,5.7,0.9
COc1ccccc1NS(=O)(=O)c1ccc(-c2cc(C)no2)s1,-0.8,-2.6,.,-9,0.69,2.0,1.6
O=C(Cc1ccccc1)NC1CCN(C(=O)c2ccc([N+](=O)[O-])cc2)CC1,1.1,2.2,-1%,-2,0.66,2.9,-0.3

# Ordered by value in Vif TR-FRET (falling): three of the compounds above.
canonical_smiles | Vif TR-FRET
COc1ccc(/C=C/C(=O)c2ccc[nH]2)cc1OC | 20%
CC(C)(C)c1cc(CN(CCO)CCO)cc(C(C)(C)C)c1O | 7%
CCn1cc(Cl)c(C(=O)Nc2ccc3c(c2)OCCO3)n1 | 1%

# Additional entries:
SMILES,HNF4A DNA FP,LANA-H2B inh,Vif TR-FRET,Beta2AR agonist,E coli growth,UCH37 DUB inh,A1 inh
Cc1cc(Cn2nc(C(=O)NCc3cccc(C(F)(F)F)c3)cc2-c2ccccc2)on1,1.3,-1.4,.,-10,0.68,-1.7,-0.2
Cc1csc(=O)n1CC(=O)OCc1nnc(-c2ccc([N+](=O)[O-])cc2)o1,-0.3,3.6,-6%,0,0.7,5.5,0.7
CN1C(=O)c2ccc(N(C)C)cc2C1=O,-7.5,5.7,24%,-12,0.68,3.9,-0.9
C=CCSc1nnc(-c2c[nH]c3ccccc23)n1CC,1.9,.,?,8,0.73,0.7,.
O=c1c2ccccc2nc2c3ccccc3c(NCCN3CCOCC3)nn12,.,4.5,-3%,.,0.66,-113,-0.2
COc1ccc(N2CCN(CCCNC(=O)Cn3c(=O)c4cccn4c4cccnc43)CC2)cc1,5.3,6.1,.,-4,0.7,-2.1,0.2
Cc1ccc(C(=O)NCCNS(C)(=O)=O)cc1,0.0,2.9,11%,2,0.72,4.2,-0.3
CC(NC(=O)c1ccc(NC2=NC3CS(=O)(=O)CC3S2)cc1)c1ccccc1 (stereo not drawn),2.8,-3.4,.,4,0.81,0.8,.

# Compound activity from PubChem BioAssay.
